TRPML1 agonist: activates the human TRPML1 channel. AID 624414. TRPML1-expressing cells, Ca2+ dye fluorescence, FDSS; host cell line not named in the record; reference of the full effect not given here. Q9GZU1. 410,000 compounds, 0.12% hits. activation, % (no concentration beside the values); in the data active = activation above about 50%; inconclusive = about 30% to 50%; inactive = below about 30%; also: 0% is about no effect; the text of the record puts the active cut at 80%
Target sequence (Q9GZU1 whole entry, looked up): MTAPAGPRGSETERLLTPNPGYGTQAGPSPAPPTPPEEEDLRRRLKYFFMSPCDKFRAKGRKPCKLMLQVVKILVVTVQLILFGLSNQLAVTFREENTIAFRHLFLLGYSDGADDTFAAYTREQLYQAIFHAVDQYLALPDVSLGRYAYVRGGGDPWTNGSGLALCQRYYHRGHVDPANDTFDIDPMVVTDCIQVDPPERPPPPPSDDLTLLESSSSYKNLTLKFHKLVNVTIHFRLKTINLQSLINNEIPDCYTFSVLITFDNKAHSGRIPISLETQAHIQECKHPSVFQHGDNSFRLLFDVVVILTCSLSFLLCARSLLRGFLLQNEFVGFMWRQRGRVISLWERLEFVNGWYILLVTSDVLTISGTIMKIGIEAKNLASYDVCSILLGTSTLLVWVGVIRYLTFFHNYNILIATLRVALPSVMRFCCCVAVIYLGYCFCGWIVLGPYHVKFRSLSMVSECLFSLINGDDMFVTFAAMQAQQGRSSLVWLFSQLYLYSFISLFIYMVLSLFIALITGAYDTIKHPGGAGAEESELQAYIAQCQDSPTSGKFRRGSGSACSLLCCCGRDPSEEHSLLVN
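Tet-induced TRPML1-DL cells, 1,500 per well, cultured overnight, were loaded with a no-wash Ca2+ dye for 45–90 min. Calcium fluorescence was recorded on the FDSS for 110 s after compound addition, before the EC80 agonist (4 uM 54-4) was added.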
PINK1 modulator: modulators of PINK1 expression. 410,000 compounds, 0.2% hits. PINK1 immunofluorescence, high-content cytometry, 24 h. Potency, µM (titrated, usually from 76.6 µM), for the others: at the highest dose activation (PINK1 increase), actives largely listed as activators; active = well fitted activation curve with a large enough effect; inconclusive = small, poorly fitted or top-dose-only effect; inactive = flat fitted curve, though single readings scatter; cell line not stated here;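 also: potency is read from the fitted curve at half-maximal effect; % of control where 0% means no effect; nearly all actives have a fitted effect of over 65% in size; a mitochondrial uncoupler was the plate control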
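Cells are seeded, rested 12 hours, then given compound at five concentrations or DMSO for 24 hours. After fixation, blocking and antibody staining, PINK1 amount and mitochondrial localization are scored; CCCP serves as control.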
An asterisk follows results filed as active; ? = inconclusive; & = joins results of further samples. The list is partial (hit frequency here may not be typical).

Compound	TRPML1 agonist	PINK1 modulator
Cc1ccc(S(=O)(=O)Nc2cc3c(cc2C)n(C)c(=O)c(=O)n3C)c(C)c1	0.3	0.7%
Cc1ccc(C(=O)/C=C/c2cn(CC(O)CN3CCc4ccccc43)c3ccccc23)cc1 (stereo not drawn)	1.0	?
Cc1ccc(N(Cc2cccs2)C(=O)c2ccc(Br)o2)cc1	2.0	0.0%
COc1ccc(-c2ccc(CCC(=O)O)n2CC(=O)Nc2cccc(C(F)(F)F)c2)cc1	2.7	-1.1%
O=C(c1ccccc1)C(I)(I)N1CCOCC1	-0.4	1.3%
CCOc1cccc2c1N[C@@H](c1ccc(C(=O)O)cc1)[C@H]1CC=C[C@@H]21	-0.3	0.3%
O=C(NCCc1ccccc1)C(=O)NCC(c1ccc2c(c1)OCO2)N1CCOCC1 (stereo not drawn)	0.1	-0.8%
CC(=O)N1CCc2cc(Br)cc(S(=O)(=O)CCC(=O)N3CCN(c4ccc(F)cc4)CC3)c21	1.7	0.7%
CCOc1ccc(-c2cc(CCCC(=O)NCCc3ccc(OCC)c(OCC)c3)no2)cc1	3.8	1.4%
COc1ccc(CCNC(=O)c2cnc3sc(N4CCOCC4)nn3c2=O)cc1	0.0	0.8%
Cc1cc(F)ccc1NC(=O)CCSc1nc(-c2ccco2)cc(C(F)(F)F)n1	2.9	9.1%
CCc1ccc(NCc2cc3ccc(OC)cc3n(CC(=O)Nc3ccccc3OC)c2=O)cc1	2.3	-0.6%
CCOC(=O)c1sc(NC(=O)C(C)Oc2ccc(OC)cc2)c(C(=O)OCC)c1C (stereo not drawn)	0.1	1.1%
N#Cc1ccccc1CN1C(=O)c2ccccc2Sc2ccc(C(=O)OCc3ccco3)cc21	1.7	1.7%
CCOc1ccc(CCNc2nc3c(-c4ccc(C)cc4)nnn3c3ccccc23)cc1OCC	-1.1	1.0%
Cc1ccccc1C(=O)Nc1ccccc1OCc1cc(=O)n2ccccc2n1	1.9	11.0%
COc1cc(C)ccc1OCCSc1nnc(-c2cccs2)o1	1.8	0.6%
O=C(Nc1nonc1-c1ccc(Br)cc1)c1ccco1	2.4	1.6%
COc1cc2nc(N3CCCN(C)CC3)nc(NC3CCN(Cc4ccccc4)CC3)c2cc1OC	0.4&0.0	-0.9%&0.1%
Cc1ccccc1NC(=O)CSc1ccc(-c2cccs2)nn1	3.0	0.4%
CCN1CCC(N(Cc2ccc3c(c2)OCO3)C(=O)Nc2cccc(C)c2C)CC1	-0.2	-1.3%
CCN1CCN(c2oc(-c3ccc(COc4ccc(C)cc4)o3)nc2C#N)CC1	0.0	-1.8%
Cc1cc(Br)ccc1NC(=O)c1cc2c(=O)n(C)c3cc(Cl)ccc3c2s1	0.0	-1.4%
Cc1nnc(SCC(=O)Nc2ccc(N(C)C)cc2)[nH]c1=O	1.1	0.9%
Cc1ccc(-n2ncc(C(=O)NCc3ccco3)c2C2CCN(C(=O)OC(C)(C)C)CC2)c(C)c1	-1.0	-0.8%
CCOc1cccc2sc(NC(=O)CS(=O)(=O)c3ccc(C)cc3)nc12	1.1	-1.5%
CCOC(=O)C1=C(CNCc2ccc(Cl)cc2)NC(=O)NC1c1ccccc1 (stereo not drawn)	0.1	1.7%
CCOc1ccc(NC(=O)C2CC(=O)N(c3ccc(C(C)C)cc3)C2)cc1 (stereo not drawn)	0.4	-4.4%
CCCOc1ccc(Nc2nc(SC)ncc2C(=O)OCC)cc1	0.2	2.4%
O=C(Cn1c(=O)nc(-c2ccccc2)c2cc(Cl)ccc21)NCCCc1ccccc1	-0.8	0.7%

Continued (7 carried over from the part before).
Compound	TRPML1 agonist	PINK1 modulator
Cc1nnc(SCC(=O)Nc2ccc(N(C)C)cc2)[nH]c1=O	1.1	0.9%
Cc1ccc(-n2ncc(C(=O)NCc3ccco3)c2C2CCN(C(=O)OC(C)(C)C)CC2)c(C)c1	-1.0	-0.8%
CCOc1cccc2sc(NC(=O)CS(=O)(=O)c3ccc(C)cc3)nc12	1.1	-1.5%
CCOC(=O)C1=C(CNCc2ccc(Cl)cc2)NC(=O)NC1c1ccccc1 (stereo not drawn)	0.1	1.7%
CCOc1ccc(NC(=O)C2CC(=O)N(c3ccc(C(C)C)cc3)C2)cc1 (stereo not drawn)	0.4	-4.4%
CCCOc1ccc(Nc2nc(SC)ncc2C(=O)OCC)cc1	0.2	2.4%
O=C(Cn1c(=O)nc(-c2ccccc2)c2cc(Cl)ccc21)NCCCc1ccccc1	-0.8	0.7%
Cc1cc(NC(=O)CN(C)S(=O)(=O)c2ccc3c(c2)CCC(=O)N3)ccc1Br	0.9	0.4%
CCCN1CNc2c(c(=O)[nH]c(=S)n2CCc2cccc(Cl)c2)C1	-0.3	0.3%
COc1cc(NC(=O)Cn2c(=O)cc(C)c3c(C)nn(-c4ccc(C)cc4)c32)cc(OC)c1	0.9	2.9%
Cc1nc2ccn(Cc3ccccc3)c(=O)c2cc1C(=O)Nc1ccc(F)cc1Cl	-1.0	0.2%
CCC(O)c1nc2ccccc2n1CCOc1cc(C)cc(C)c1 (stereo not drawn)	2.1	0.0%
Cc1ccc(CNC(=O)CN2C(=O)C3(SCC(=O)N3c3ccc(F)cc3)c3ccccc32)cc1 (stereo not drawn)	1.0	-5.6%
CCOc1ccc(-c2nnc(SCC(=O)Nc3cccc(C#N)c3)o2)cc1	-0.5	-0.9%
Cc1cc(C)c(NC(=O)c2cc3sc(Cl)cc3n2C)c(C)c1	-0.8	-1.0%
CCN(C(=O)Cn1c(SCC(=O)NCc2ccccc2)nc2ccccc21)c1cccc(C)c1	3.2	-1.6%
Cc1cc(C)c2c(CC(=O)Nc3ccc(S(=O)(=O)Nc4ncccn4)cc3)coc2c1	0.1	-1.1%
CCc1ccc(NC(=O)Cn2c(=O)n(CCCCC(=O)NCc3ccc4c(c3)OCO4)c(=O)c3ccccc32)cc1	-1.1	4.9%
Cc1cccc(Nc2nc(-c3ccccc3)c3cc(C)ccc3n2)c1	0.3	2.1%
CCn1c(=O)c2cc(C(=O)NCCCN3CCN(C)CC3)sc2c2ccccc21	-0.7	3.1%
COc1ccc(NC(=O)Cn2cnc3sc(C)c(S(=O)(=O)N4CCN(C)CC4)c3c2=O)cc1Cl	-0.8	1.1%
COc1ccc(-c2ccc(=O)n(CC(=O)Nc3ccccc3C(F)(F)F)n2)cc1	5.4	-0.4%
CCCCN(CCCC)C1=C(C(=O)c2ccccc2)N(CC)S(=O)(=O)c2ccccc21	0.7	-4.4%
COCCN1C(=O)N(c2cccc(OC)c2)C(=O)C1CC(=O)Nc1ccccc1 (stereo not drawn)	1.5	2.4%
CCOc1ccc(NC(=O)N2CCN(C(=O)c3nsc4ccccc34)CC2)cc1	2.2	0.0%
Cc1ccc(NC(=O)CSc2ncc(S(=O)(=O)c3ccc(C(C)C)cc3)c(=O)[nH]2)cc1C	0.7	-0.9%
CCN(CC)C(=O)c1sc2c(c1C)c(=O)n(CCc1ccccc1)c(=O)n2Cc1cccc(Cl)c1	1.6	3.0%
Cc1ccc(-c2cc(-c3coc4ccccc4c3=O)c3c(n2)-c2ccccc2OC3)cc1	0.2	0.3%
O=C(Nc1ccc(O)c(-c2nc3ccccc3o2)c1)c1ccc(-c2cccc(Cl)c2)o1	-0.1	2.6%
CCNc1ccc(-c2nc(-c3ccccn3)no2)cc1[N+](=O)[O-]	-0.5	10.3%
O=C(Cc1ccc(Cl)cc1)NCC(c1cccs1)S(=O)(=O)c1ccccc1 (stereo not drawn)	0.0	-0.5%
Nc1ccc(N2CCN(c3ncc(C(F)(F)F)cc3Cl)CC2)c(C(F)(F)F)c1	2.8	4.3%
CCN1C(=O)c2ccccc2S(=O)c2ccc(C(=O)NCc3ccc(C)cc3)cc21 (stereo not drawn)	-0.2	0.6%
O=C(O)c1cc2cccc([N+](=O)[O-])c2[nH]1	-0.6&-0.4	0.8%&-0.5%
Cc1cc(Cl)ccc1NC(=O)CN(c1ccccc1Br)S(C)(=O)=O	-1.4	2.6%
COc1ccc(NC(=O)CN(C)S(=O)(=O)c2ccc3c(c2)CCCN3C(C)=O)cc1Cl	-1.2	-2.1%
O=C(c1ccc2c(c1)OCCO2)N(Cc1cccnc1)c1nc2c(F)cc(F)cc2s1	-0.1	2.2%

The results go on.
Compound	TRPML1 agonist	PINK1 modulator
Cn1c(SCc2ccc(C(F)(F)F)cc2)nc2c([nH]c3ccccc32)c1=O	0.2	2.0%
CCN(C(=O)CSc1nnc(-c2cc3occc3n2C)n1-c1ccccc1C)c1cccc(C)c1	1.5	0.3%
O=C(COc1ccccc1Cl)OCc1cc(=O)n2nc(C3CC3)sc2n1	1.2	0.3%
Cc1nc(-n2nc(C)c(CCC(C)C)c2C)sc1C(=O)Nc1cccc(Cl)c1C	-0.5	-1.6%
CCOc1ccc(CCNC(=O)Cn2ncn3c(cc4sc(C)cc43)c2=O)cc1OCC	0.8	0.1%
CCS(=O)(=O)c1ncc(Cl)c(C(=O)N(Cc2ccccc2)c2ccc(OC)cc2)n1	0.5	-1.2%
O=C(NCC(c1cccs1)S(=O)(=O)c1cccs1)c1c(F)cccc1F (stereo not drawn)	-0.8	0.7%
CC1=C(C(=O)Nc2ccc(C)cc2C)C(c2ccccc2[N+](=O)[O-])n2ncc(C(=O)Nc3ccccc3)c2N1 (stereo not drawn)	2.6	8.7%
CCOc1ccc(-c2cc3c(=O)n(Cc4nc(-c5ccc(OC)cc5OC)oc4C)ccn3n2)cc1Cl	-0.5	8.9%
CC(Oc1ccc(F)cc1)C(=O)N1CCC(c2nc3ccccc3s2)CC1 (stereo not drawn)	1.4	2.3%
CCN1CCN(c2ncc3c(n2)CCN(Cc2ccccc2C)C3)CC1	0.4	6.2%
CCOC(=O)c1c(NC(=O)C2c3ccccc3Oc3ccccc32)sc(C)c1C	0.9	3.3%
CCOC(=O)C1CCCN(C(=O)Cn2ncc3c(C)n(Cc4ccccc4Cl)c(C)c3c2=O)C1 (stereo not drawn)	0.3	-0.7%
Cc1cccn2c(Nc3ccccc3)c(-c3ccc(N4CCOCC4)cc3)nc12	3.0	2.2%
Cc1cc[n+](CC#N)cc1	-0.3	1.1%
CC(=O)c1ccc(NC(=O)Cn2c(=O)oc3cc(S(=O)(=O)N4CCCCC4)ccc32)cc1	-1.0	3.1%
COc1ccc(CCNC(=O)CCCCn2c(=O)c3ccccc3n(Cc3ccc(Cl)cc3)c2=O)cc1OC	0.2	0.6%
Cc1ccc(C2c3c(oc4ccccc4c3=O)C(=O)N2c2nnc(C)s2)cc1 (stereo not drawn)	-0.4	2.8%
Cc1ccc(-n2c(=O)c3ccccc3n(CC(=O)Nc3cccc(C(F)(F)F)c3)c2=O)cc1	1.5	3.5%
CN(Cc1ccccc1)C(=O)c1ccc2c(c1)N(Cc1ccccc1F)C(=O)c1ccccc1S2(=O)=O	1.1	1.3%
Cc1cccc(NC(=O)c2ccc(CNS(=O)(=O)c3ccc4c(c3)C(C)(C)C(=O)N4C)cc2)c1	3.2	-1.2%
CCOc1ccc(N(CC)C(=O)CSc2n[nH]c(-c3ccccc3)n2)cc1	0.0	0.0%
CCNc1c(NC(=O)c2ccccc2OCC)c(=O)oc2ccccc12	1.1	5.5%
COc1ccc(NC(=O)c2ccc(-c3nc(CSc4ccccc4)c(C)o3)cc2)cc1OC	1.7	1.9%
Cc1ccc(CNC(=O)c2sc3nc(-c4ccccc4)cn3c2C)cc1	4.9	3.7%
O=C(NCc1ccccc1Cl)c1ccc2c(c1)NC(=O)C(CS(=O)(=O)Cc1ccc(F)cc1Cl)N2 (stereo not drawn)	0.2	4.5%
COc1ccc(Cn2c(=O)c3ccccc3n3c(-c4cccc(OC)c4OC)nnc23)cc1	-1.1	-0.6%
CCOC(=O)c1[nH]c(C)c(CCC(=O)N2CCN(c3cc(C)ccc3C)CC2)c1C	2.2	0.8%
CCOC(=O)c1c(S(=O)(=O)N2CCC(C(=O)Nc3ccc(C)cc3C)CC2)c(C)n(C)c1C	-0.9	0.9%
COC(=O)c1ccc(C(=O)OC)c(NC(=O)c2c(-c3ccccc3)c(-c3ccccc3)nn(C)c2=O)c1	1.8	1.3%

Continued.
Compound	TRPML1 agonist	PINK1 modulator
Cc1cccc(C(=O)n2nc(C)c(S(=O)(=O)N3CCOCC3)c2C)c1	-0.3	-0.9%
CCc1ccc(NC(=O)C(=O)NCCc2sc(-c3ccc(OC)c(OC)c3)nc2C)cc1	3.7	1.4%
Cc1c(C(=O)OC2CCCC2)[nH]c2c1C(=O)CC(c1ccc(Cl)cc1)C2 (stereo not drawn)	-0.7	0.6%
CCc1nnc(SCC(=O)Nc2ccc(OC)c(OC)c2)c2cc3occc3n12	-0.7	0.1%
CCc1ccc(NC(=O)CSc2nnc(-c3ccccc3)n2CC)cc1	-1.0	-0.4%
O=C(c1cc(S(=O)(=O)N2CCCC2)c[nH]1)N1CCN(c2cccc(Cl)c2)CC1	1.8	1.0%

Compound activity from PubChem BioAssay.
